PINK1 modulator: A Quantitative High throughput Screen to Identify Chemical Modulators of PINK1 Expression. PINK1 immunofluorescence, high-content cytometry, 24 h. Potency, µM (titrated, usually from 76.6 µM), for inactives: at the highest dose activation (PINK1 increase), actives largely listed as activators. actives 0.2% (n = 410,000). AID 624263, 2012; active = well fitted activation curve with a large enough effect; inconclusive = small, poorly fitted or top-dose-only effect; inactive = flat fitted curve, though single readings scatter; cell line not stated here;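 note: potency is the fitted concentration of half-maximal effect; % of control where 0% means no effect; nearly all actives have a fitted effect of over 65% in size; a mitochondrial uncoupler was the plate control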
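Decision-based qHTS: stable cells, 24 h exposure to five compound concentrations, CCCP as control. Fixed cells stained for PINK1 plus nuclear, mitochondrial and cell markers, cytometer read.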
TRPML1 agonist: qHTS for Agonists of the Human Mucolipin Transient Receptor Potential 1 (TRPML1). Mucolipin-1 (Homo sapiens), Q9GZU1. TRPML1-expressing cells, Ca2+ dye fluorescence, FDSS; host cell line not named in the record; reference of the full effect not given here. activation, % (no concentration beside the values). actives 0.12% (n = 410,000). AID 624414, 2012; in the data active = activation above about 50%; inconclusive = about 30% to 50%; inactive = below about 30%; note: 0% is about no effect; the text of the record puts the active cut at 80%
Target sequence (Q9GZU1 whole entry, looked up): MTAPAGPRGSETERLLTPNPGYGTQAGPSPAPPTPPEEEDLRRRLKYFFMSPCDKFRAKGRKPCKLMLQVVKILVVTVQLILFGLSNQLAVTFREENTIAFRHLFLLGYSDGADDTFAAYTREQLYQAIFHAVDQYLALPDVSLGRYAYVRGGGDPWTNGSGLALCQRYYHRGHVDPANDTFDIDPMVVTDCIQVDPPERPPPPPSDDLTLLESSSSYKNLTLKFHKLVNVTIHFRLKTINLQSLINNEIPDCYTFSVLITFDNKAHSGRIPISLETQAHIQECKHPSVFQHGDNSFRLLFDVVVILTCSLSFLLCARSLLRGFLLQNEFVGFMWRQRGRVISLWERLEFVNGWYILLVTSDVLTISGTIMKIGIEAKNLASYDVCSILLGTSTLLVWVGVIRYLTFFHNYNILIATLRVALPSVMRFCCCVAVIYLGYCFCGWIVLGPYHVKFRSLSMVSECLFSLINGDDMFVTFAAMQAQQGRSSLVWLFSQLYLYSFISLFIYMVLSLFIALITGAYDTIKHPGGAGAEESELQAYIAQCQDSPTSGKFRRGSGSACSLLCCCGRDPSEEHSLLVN
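Tetracycline-induced TRPML1-DL cells are seeded and incubated overnight before loading with a no-wash Ca2+ dye and quencher. Agonist activity is taken from the 110 s fluorescence read following compound pin-transfer on an FDSS, before EC80 54-4 challenge.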
* hit, by the source's call; ? = inconclusive. A portion of the library, so the mix of outcomes need not match the whole.

The line under a structure holds: PINK1 modulator	TRPML1 agonist
CCCS(=O)(=O)c1nc(S(=O)(=O)c2ccc(C)cc2)c(NCCCOC(C)C)s1
    1.4%	0.9
CN(C)c1ccc(/C=C2\C=Cc3ccccc32)cc1Br
    2.7%	0.1
CCN(CCCN(C)C)c1ccc(/C=C/c2ccnc3ccccc23)cc1
    1.1%	?
CC(C)(C)C(=O)Nc1cccc(-c2cn3cccnc3n2)c1
    -0.1%	-0.8
Cc1oc(-c2ccccc2F)nc1CSc1nnc(C)n2c1cc1occc12
    1.1%	0.9
COc1ccc(CNC(=O)CCC2N=C3c4ccccc4N=C(SCc4cccc(F)c4)N3C2=O)cc1 (stereo not drawn)
    2.5%	0.3
Cc1cc(C)cc(NC(=O)Cn2cc(C(=O)c3ccccc3)c(=O)c3ccc(C)nc32)c1
    2.4%	1.5
CN1c2cc(Cl)ccc2-c2nc(SCC(=O)Nc3ccc(F)cc3F)ncc2S1(=O)=O
    2.9%	0.3
O=C(COc1ccc2ccccc2c1)Nc1ccc(O)c(-c2nc3ccccc3o2)c1
    -0.4%	-0.6
Cc1ccc(C)c(NC(=O)c2nc(S(=O)(=O)Cc3ccc(F)cc3)ncc2Cl)c1
    5.5%	-0.4
CCc1ccc(NC(=O)Cn2c(=O)c3cc(Cl)ccc3n3nncc23)cc1
    1.5%	-1.1
Cc1ccc(-c2noc(-c3ccc(N4CCOCC4)c([N+](=O)[O-])c3)n2)cc1
    1.3%	-0.5
CCCOc1ccc(-c2nn(-c3ccccc3)cc2C2NC(=O)NC(C)=C2C(=O)OC(C)C)cc1 (stereo not drawn)
    -2.8%	1.9
COC(=O)c1scc(-c2ccc(C)cc2)c1S(=O)(=O)Nc1cccc(C(F)(F)F)c1
    1.2%	0.8
CCc1ccc(-n2c(CCC(=O)O)ccc2-c2cccs2)cc1
    -1.4%	1.9
Cc1cc(S(=O)(=O)NCC(c2ccc(N(C)C)cc2)N2CCOCC2)ccc1F (stereo not drawn)
    -1.4%	-0.6
COc1ccccc1-c1c(C)nn2c(N3CCN(c4cccc(Cl)c4)CC3)cc(C)nc12
    0.0%	0.3
COc1ccc(N2CC(NC(=O)C3CC3)CC2=O)cc1 (stereo not drawn)
    -0.3%	-0.5
Cc1ccccc1N(C)S(=O)(=O)c1nnc(NC(=O)C(C)C)s1
    1.1%	-0.1
O=c1[nH]c(SCc2ccccc2)nc2c1CCCC2
    1.4%	1.7

The line under a structure holds: PINK1 modulator	TRPML1 agonist
CCCn1c(NCc2ccccc2F)nc2ccccc21
    0.8%	0.1
COc1ccc(CCNC(=O)C(=O)NCC(c2cccs2)S(=O)(=O)c2ccc(F)cc2)cc1 (stereo not drawn)
    1.1%	2.3
Cc1ccc(CCNC(=O)C(CC(C)C)NS(=O)(=O)c2ccc3c(c2)oc(=O)n3C)cc1 (stereo not drawn)
    1.5%	-0.1
Cc1ccc(CCNC(=O)CCSCc2ccccc2Cl)cc1
    0.7%	3.9
O=C(COc1ccccc1[N+](=O)[O-])Nc1cc(-c2nc3cc(Cl)ccc3o2)ccc1Cl
    3.1%	0.4
O=C(NC1CC1)c1ccc(Cn2c(SCc3cccc(F)c3)nc3cccnc32)cc1
    1.8%	0.2
COC(=O)c1cc2sccc2n1Cc1c(C)cc(C)cc1C
    5.4%	0.2
C=C1NN(Cc2ccccc2)C(=O)N1c1ccc(OC)cc1
    -0.5%	-1.0
COc1cccc(N2CCN(C(=O)C3CCN(S(=O)(=O)c4cn(C)cn4)CC3)CC2)c1
    -0.6%	1.2
CC(C)CCNC(=O)CCn1c(=O)c2cccn2c2cccnc21
    -0.4%	-0.6
COc1ccc(N2CCN(c3cc(C)nc4nncn34)CC2)cc1
    0.1%	-1.0
O=C(C[n+]1ccccc1Br)c1ccc(O)c(O)c1
    -0.5%	-0.7
O=C(Cn1cc(S(=O)(=O)Cc2ccccc2Cl)c2ccccc21)NCCc1ccccc1
    4.8%	2.0
Nc1nonc1-c1nc2ccccc2n1Cc1cccc(Cl)c1
    0.9%	0.5
CCOc1ccc(NC(=O)c2cc(S(=O)(=O)NC3CCCCCC3)ccc2F)cc1
    1.3%	2.2
Cc1ccc(N(CC(=O)NCCc2ccccc2)S(=O)(=O)N(C)C)cc1
    -1.1%	-0.8
COC(=O)c1nc2n(n1)C(c1cc(OC)ccc1OC)C=C(c1ccc(Br)cc1)N2 (stereo not drawn)
    6.0%	1.3
CCC(=O)Nc1cc(-c2cccc(C)c2)nn1-c1ccccc1
    0.7%	-1.1
COC(=O)c1cc2c([nH]c1=O)CC(c1ccccc1)CC2=O (stereo not drawn)
    2.4%	-1.1
CSc1ncc(C(=O)N2CCN(c3cc(Cl)ccc3C)CC2)c(C)n1
    3.1%	1.6

Gathered by group, the compounds so far with a thiophene ring, fused or not (4)
The line under a structure holds: PINK1 modulator	TRPML1 agonist
COC(=O)c1scc(-c2ccc(C)cc2)c1S(=O)(=O)Nc1cccc(C(F)(F)F)c1
    1.2%	0.8
CCc1ccc(-n2c(CCC(=O)O)ccc2-c2cccs2)cc1
    -1.4%	1.9
COc1ccc(CCNC(=O)C(=O)NCC(c2cccs2)S(=O)(=O)c2ccc(F)cc2)cc1 (stereo not drawn)
    1.1%	2.3
COC(=O)c1cc2sccc2n1Cc1c(C)cc(C)cc1C
    5.4%	0.2

Further records follow.
The line under a structure holds: PINK1 modulator	TRPML1 agonist
O=C(CCc1ccccc1)N(Cc1cccnc1)c1nc2c(F)cccc2s1
    -0.3%	4.1
COc1ccc(CNS(=O)(=O)c2cc3c(cc2Cl)N(C(C)=O)CCO3)cc1
    0.5%	0.4
CCC(=O)Nc1ccc(CC)cc1-c1nc2ccccc2n(CC(=O)Nc2ccccc2C)c1=O
    24%	-0.2
CCc1ccc(NC(=O)CSc2nc(-c3ccc(C)cc3)nc3c2Cc2c(CO)cnc(C)c2O3)cc1
    1.0%	2.1
Cc1ccc(CNC(=O)CN2CCCN(Cc3ccc(F)cc3)S2(=O)=O)cc1
    1.4%	1.1
CCOC(=O)c1cc(OC(=O)c2ccc(OC)c(OC)c2)n(-c2ccccc2)n1
    -1.5%	2.0
CCn1c(=O)cc(OCC(=O)Nc2ccc(C)c(F)c2)c2ccccc21
    0.4%	-0.6
Cc1ccc(S(=O)(=O)N(CC(=O)NCCSc2ccc(Cl)cc2)c2cccc(Cl)c2)cc1
    0.2%	0.9
Cc1cc(C)cc(NC(=O)c2cn3c4c(ccc(Cl)c4c2=O)OC(C)C3)c1 (stereo not drawn)
    -0.1%	1.8
CCOc1ccc(CNC(=O)c2ccc3c(c2)c(C)c(C)n3C)cc1
    -0.6%	2.5
COc1ccc(CCN2C(=O)c3oc4ccc(F)cc4c(=O)c3C2c2ccc(C(C)(C)C)cc2)cc1 (stereo not drawn)
    -0.1%	1.3
O=C(c1ccccc1Cl)N(Cc1ccco1)Cc1ccco1
    2.1%	6.0
CCC(C)NC(=O)c1sc2nc(C)c(C(=O)Nc3ccc(Cl)cc3)c(-c3ccc(Br)cc3)c2c1N (stereo not drawn)
    4.7%	-0.1
COc1ccc(NC(=O)c2cnc(N3CCOCC3)c3ccccc23)cc1OC
    2.3%	-0.5
CCC(=O)Nc1ccc(CC)cc1-c1nc2ccccc2n(CC(=O)Nc2cccc(Cl)c2)c1=O
    3.0%	-0.2
Cc1ccc(NC(=O)c2ccc3c(c2)NC(=O)c2ccccc2S3)c(Cl)c1
    11%	-0.7
CCc1nc(Nc2ccc(F)c(Cl)c2)c2c3c(sc2n1)CCCC3
    -0.2%	2.4
Cc1c(NC(=O)Cc2ccc(Cl)cc2)cccc1-c1nc2cccnc2s1
    0.6%	0.9
CCOc1cc(C(=O)N2CC(=O)Nc3ccc(F)cc3C2c2ccccc2)cc(OCC)c1OCC (stereo not drawn)
    -2.4%	-0.3
CCCCC(=O)Nc1c(C(=O)N2CCN(c3ccccc3)CC2)oc2ccccc12
    0.1%	0.2

The line under a structure holds: PINK1 modulator	TRPML1 agonist
COc1ccc(CNC(=O)CN2CCSc3ccccc32)c(OC)c1
    -1.2%	2.8
CCOc1ccc(S(=O)(=O)Nc2cccc(-c3ccc(N4CCC(C)CC4)nn3)c2)cc1
    2.8%	1.1
O=C(c1cnc(N2CCCCC2)c2ccccc12)N1CCN(c2ccc(F)cc2)CC1
    0.7%	1.3
Cc1ccc(C)c(-c2nn(CC(=O)Nc3cc(F)ccc3F)c(=O)c3c2CCCC3)c1
    -0.2%	0.8
CC(C)Cc1nn2c(=O)cc(COC(=O)c3cccc(NC(=O)CCc4ccccc4)c3)nc2s1
    1.4%	0.9
Cc1ccccc1NC(=O)CCc1c(C)nc2c(c1C)c(=O)n(C)c(=O)n2C
    3.8%	-0.3
CCC(CC)C(=O)N1CCc2cc(OC)c(OC)cc2C1COc1ccc(F)cc1 (stereo not drawn)
    -5.0%	3.1
CCc1ccc(CNC(=O)CCSCc2ccccc2F)cc1
    -0.4%	1.8
Cc1ccc(NC(=O)C2CCCN(S(=O)(=O)c3cccc4cccnc34)C2)c(Br)c1 (stereo not drawn)
    1.2%	-0.2
CCCCN(CC)c1nc(-c2ccccc2F)nc2ccccc12
    0.8%	0.9
COC(=O)c1cc2oc(C)cc2n1Cc1ccccc1Cl
    6.4%	1.8
Cc1cccc(-c2nnn3c2nc(NCCc2ccc(S(N)(=O)=O)cc2)c2cc(Cl)ccc23)c1
    -0.4%	-0.5
Cc1oc(-c2ccccc2Cl)nc1CS(=O)CC(=O)N1CCN(c2cccc(C(F)(F)F)c2)CC1 (stereo not drawn)
    -0.1%	2.7
O=C(O)c1sc(Nc2ccccc2)nc1-c1ccccc1
    2.4%	-0.1
COc1ccc(-c2nc3sc(CCNC(=O)C(=O)Nc4ccc(OC)c(OC)c4)c(C)n3n2)cc1
    2.5%	2.2
COc1ccc(OC)c(S(=O)(=O)N2Cc3ccccc3CC2C(=O)Nc2ccc(C)cc2C)c1 (stereo not drawn)
    0.1%	1.6
CCOc1ccc(CN2C(=O)c3ccccc3Sc3ccc(C(=O)O)cc32)cc1
    9.9%	0.8
Cc1cc(Cl)ccc1OCC(=O)N(Cc1ccc(N(C)C)cc1)C1CCS(=O)(=O)C1 (stereo not drawn)
    -1.5%	0.5
COc1ccc(NC(=O)c2cc(C(C)=O)n3ccccc23)cc1Cl
    7.2%	-0.8
Cc1ccc(N(CC(=O)Nc2ccc(Cl)cc2)S(=O)(=O)c2cccc3nonc23)cc1
    2.2%	-0.2

The line under a structure holds: PINK1 modulator	TRPML1 agonist
CC(=O)c1ccc(NC(=O)c2cc3sccc3n2Cc2ccc(F)cc2)cc1
    11%	0.2
CN(C)c1ccc(C(CNS(=O)(=O)c2ccc(F)cc2)N2CCc3ccccc32)cc1 (stereo not drawn)
    4.0%	-0.1
Cc1nnc(N2C(=O)c3oc4ccccc4c(=O)c3C2c2ccc(F)cc2)s1 (stereo not drawn)
    3.1%	0.6
CCc1ccccc1NC(=O)N1CC(CC)Oc2ccc(Cl)cc21 (stereo not drawn)
    -0.1%	2.4
O=C(NC1(C(F)(F)F)C(=O)Nc2c1c(=O)[nH]c(=O)n2CCc1ccccc1)c1ccc(Cl)cc1Cl (stereo not drawn)
    -0.3%	3.7
CCCCOC(=O)c1cccc(NC(=O)/C=C/c2ccccc2Cl)c1
    1.8%	0.7
NC(=O)c1nc(Nc2ccccc2)sc1NC(=O)c1ccccc1Br
    3.0%	2.9
NC(=O)CSc1ncc2c(n1)-c1ccccc1N(Cc1ccc(F)cc1)S2(=O)=O
    1.8%	1.1
Cc1ccccc1CSc1nc2cccnc2n1Cc1ccc(C(=O)NCCc2cccs2)cc1
    3.0%	2.8
COc1ccc(Cl)cc1NC(=O)NCc1noc2ccccc12
    0.2%	3.6
CC(C)c1ccc(C2c3c(-c4ccccc4O)n[nH]c3C(=O)N2Cc2ccncc2)cc1 (stereo not drawn)
    0.2%	0.3
CCOc1ccccc1NC(=O)Cn1cnc2sc(C)c(S(=O)(=O)N3CCC(C)CC3)c2c1=O
    1.9%	0.5
COc1ccc(OC)c(NC(=O)Cn2c(=O)n(-c3cccc(C)c3)c(=O)c3c2c2cc(C)ccc2n3C)c1
    1.0%	0.1
CCCCOc1ccc(-c2nonc2NC(=O)c2ccco2)cc1
    0.8%	-0.4
CCOC(=O)c1c(Nc2ccc(C)c(C)c2)nnc(-c2ccccc2)c1-c1ccccc1
    -2.7%	2.4
Cc1ccc(S(=O)(=O)C(CNS(=O)(=O)c2ccc(F)c(C(F)(F)F)c2)c2ccco2)cc1 (stereo not drawn)
    0.5%	0.8
CCOc1ccc(-n2c(SCC(=O)Nc3ccccc3OC)nc3c(oc4ccccc43)c2=O)cc1
    3.1%	-0.1
COc1ccc(NC(=O)c2sc3nc(C)c(C(=O)Nc4ccc(C)cc4C)c(-c4ccc(Cl)cc4)c3c2N)cc1
    0.8%	0.1
CCc1ccc(C(=O)CSC2=C(C#N)C(c3ccco3)C(C(C)=O)=C(C)N2)cc1 (stereo not drawn)
    3.4%	0.3

In the list so far, these have a tert-butyl group:
The line under a structure holds: PINK1 modulator	TRPML1 agonist
CC(C)(C)C(=O)Nc1cccc(-c2cn3cccnc3n2)c1
    -0.1%	-0.8
COc1ccc(CCN2C(=O)c3oc4ccc(F)cc4c(=O)c3C2c2ccc(C(C)(C)C)cc2)cc1 (stereo not drawn)
    -0.1%	1.3
